Screening data from PubChem.
MLL AF4-AF9 inh = inhibitors of human MLL-AF4/AF9 interaction; P42568; AlphaScreen, biotin-AF4 peptide binding to FLAG-AF9; inhibition, % at 10 µM; 0.47% of 350,000 active;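 active = every replicate reaching a set inhibition limit, whatever the replicate mean, cut at about 25% in these data; inconclusive = mean inhibition reaches that limit but some replicates miss it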;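 note: 0% = plate neutral control median and 100% = total signal loss; the record names both 10 and 1 µM as test concentration; the first replicate is given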
LANA-H2A inh = blocks KSHV LANA binding to histone H2A/H2B | Q9QR71 | cell-free LANA-H2A/H2B peptide, fluorescence polarization | inhibition, % (no concentration beside the values) | 0.6% of 320,000 active | AID 2629; in the data active = inhibition mostly above about 10%, no sharp cut-off; inactive = mostly below about 6.7%;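 note: stock transfer was 7.5 nL into about 10 µL; 0% = median of vehicle wells and 100% = median of positive control wells; one replicate is shown; the record names a cut of 25% in any replicate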
Target sequence (Q9QR71 whole entry, looked up): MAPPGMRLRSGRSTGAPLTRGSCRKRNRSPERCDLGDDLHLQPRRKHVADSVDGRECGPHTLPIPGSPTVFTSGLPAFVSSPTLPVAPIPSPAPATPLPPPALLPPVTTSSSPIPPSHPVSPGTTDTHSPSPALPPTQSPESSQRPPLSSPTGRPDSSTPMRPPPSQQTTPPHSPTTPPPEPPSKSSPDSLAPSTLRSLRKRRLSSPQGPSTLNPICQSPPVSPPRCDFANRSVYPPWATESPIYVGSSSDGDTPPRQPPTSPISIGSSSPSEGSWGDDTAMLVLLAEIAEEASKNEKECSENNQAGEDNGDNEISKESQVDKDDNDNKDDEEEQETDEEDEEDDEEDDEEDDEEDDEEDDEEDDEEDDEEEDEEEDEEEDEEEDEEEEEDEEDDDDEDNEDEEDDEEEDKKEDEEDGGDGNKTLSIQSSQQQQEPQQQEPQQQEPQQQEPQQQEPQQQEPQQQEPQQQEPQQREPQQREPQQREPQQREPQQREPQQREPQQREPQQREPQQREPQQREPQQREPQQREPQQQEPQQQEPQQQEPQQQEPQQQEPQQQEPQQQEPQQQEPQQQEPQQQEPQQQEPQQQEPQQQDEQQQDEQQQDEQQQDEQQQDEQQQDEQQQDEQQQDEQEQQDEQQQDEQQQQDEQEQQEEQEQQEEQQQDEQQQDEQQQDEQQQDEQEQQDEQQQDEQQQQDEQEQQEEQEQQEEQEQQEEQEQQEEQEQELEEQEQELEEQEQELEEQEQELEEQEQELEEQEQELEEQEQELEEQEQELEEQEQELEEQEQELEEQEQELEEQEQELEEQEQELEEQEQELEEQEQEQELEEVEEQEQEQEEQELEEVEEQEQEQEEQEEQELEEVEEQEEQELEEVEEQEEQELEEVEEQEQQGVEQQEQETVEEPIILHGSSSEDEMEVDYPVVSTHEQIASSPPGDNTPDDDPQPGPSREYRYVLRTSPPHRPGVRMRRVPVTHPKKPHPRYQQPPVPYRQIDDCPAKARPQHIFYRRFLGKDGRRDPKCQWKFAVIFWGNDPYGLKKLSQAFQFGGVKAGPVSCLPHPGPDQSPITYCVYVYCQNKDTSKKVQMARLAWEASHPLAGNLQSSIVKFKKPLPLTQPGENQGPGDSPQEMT
Bfl-1 A1 inh = inhibitors of the anti-apoptotic protein A1, read as caspase activation; AID 2462; 0.066% of 330,000 active; caspase activation, % (concentration not given with the values); MEF A1-2A-BIM cells, Caspase-Glo 3/7 luminescence, 3 h; percent of clofoctol response, vehicle zero;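 active = over half of replicate activation scores above 10%, or exactly half above 10 with the replicate mean above 10; inconclusive = replicate mean below 10 yet half the replicates above 10; inactive = over half of replicates below 10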;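 note: wells of about 30 µL received 50 nL stock; many hits fall short of the cut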
Beta cell apopt = beta cell apoptosis inhibition | INS-1E cytokine-induced death, ATP luminescence, 48 h; percent of positive-control rescue, neutral wells zero | protection from apoptosis, % (no concentration beside the values) | AID 435005 | 0.8% of 300,000 active;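 active = all replicates at 75% or more, or half of them and the mean; inconclusive = half reach 75% but not the mean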;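 note: 0% = cytokine-treated negative control wells and 100% = positive control rescue; higher means more ATP so stronger rescue from cytokine killing; wells of about 40 µL received 100 nL stock; the first replicate is given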
RanGTP-Imp inh = inhibitors of RanGTP-importin-beta interaction, primary screen, biochemical, FRET, CFP-Ran, YFP-importin-beta, homogeneous; 1.1% of 300,000 active; cell-free CFP-Ran/YFP-importin-beta FRET ratio; inhibition, % (concentration not given with the values);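 active = most replicates above 15%; inconclusive = exactly half above 15%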;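 note: 0% = DMSO wells and 100% = Ran loaded with GDP instead of GTP; wells of about 40 µL received 100 nL stock; the first replicate is given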
Calb FLC = affects C. albicans growth with fluconazole; growth inhibition, % (test concentration not listed); AID 1979; C. albicans CaCi-2 (fluconazole-resistant clinical isolate) + fluconazole, Alamar Blue growth, 48 h; 0.57% of 300,000 active;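 active = most replicates above 75%; inconclusive = exactly half above 75%; inactive = most below 75%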;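 note: all wells also contain fluconazole at 8 µg/ml as a sub-toxic cotreatment; 0% = median of DMSO wells and 100% = median of geldanamycin control wells; wells of about 8 µL received 7.5 nL stock; the first replicate is given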
Vif A3G = HIV-1 Vif–A3G interaction blockers – biochemical, TR-FRET, GST-Vif 1-94, biotin-A3G peptide, dose response retest, primary screen (AID 1117319) | TR-FRET GST-Vif / biotin-A3G peptide binding; higher % means a stronger effect; test concentration not given here; strong numbers were not always called active | inhibition, %; hits with a dose series show IC50 in µM | 0.57% of 260,000 active;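 active = above the screen mean plus three standard deviations and confirmed in dose response; inconclusive = results disagree or hit not tested in dose response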;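 note: Vif residues 1-94 fused to GST binding biotinylated APOBEC3G peptide 110-148; 0% = full assay without inhibitor and 100% = GST in place of GST-Vif; retest series ran down from 100 µM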
T cruzi repl = T. cruzi replication inhibition. AID 1885. inhibition, % (test concentration not listed). T. cruzi beta-gal in NIH3T3, luminescence, 90 h. 1.4% of 300,000 active;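 active = mean inhibition across valid replicates above about 55%, limit read from the data; inconclusive = mean below that limit but half or more replicates reach it; inactive = mean below it, under half of replicates reach it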;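 note: signal also drops with host cell toxicity which is not excluded here; 0% = plate median of DMSO wells and 100% = zero luminescence signal; higher percent means less beta-gal luminescence so fewer parasites; stock transfer was 50 nL into about 50 µL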
* = called active by the depositor; ? = inconclusive; . = no result given. Rows are unselected. Share with any hit: about 4.3%.

Molecule	MLL AF4-AF9 inh	LANA-H2A inh	Bfl-1 A1 inh	Beta cell apopt	RanGTP-Imp inh	Calb FLC	Vif A3G	T cruzi repl
CC(C)N=C(NC#N)SCc1ccccc1	.	0.2	0.3	0	-3.4	-4	-7%	-2
c1coc(C2=NCCc3ccccc32)c1	-0.7	4.4	0.0	.	-2.8	-6	.	-12
Cc1ccc(S(=O)(=O)N2CCC(C(=O)N[C@@H](C)C(=O)NC3CCCCC3)CC2)cc1	.	2.3	-0.5	.	-1.8	-6	11%	2
COC(=O)[C@H](NC(=O)c1cc(-c2ccccc2)nc2ccccc12)c1ccccc1	-2.3	-0.3	-0.1	1	-2.1	.	.	8
Cc1c(Nc2nc3ccccc3nc2N2CCN(c3ccccc3)CC2)c(=O)n(-c2ccccc2)n1C	.	3.0	0.5	1	6.4	5	3%	15
CCOC(=O)C1(CCOC)CCN(Cc2ccc3nonc3c2)CC1	11	1.2	0.1	2	-1.4	6	-9%	6
Cc1ccc(N(CC(=O)N2CCN(c3ccccc3F)CC2)S(=O)(=O)c2c(C)noc2C)cc1	-2.5	-0.2	1.2	4	11	19	2%	13
COC(=O)[C@H](Cc1ccccc1)NC(=O)NCCc1ccc(F)cc1	-3.9	-3.7	0.6	-8	11	-10	-1%	4
COc1ccccc1-c1noc(-c2ccco2)n1	.	2.4	-13	2	-0.1	-6	17%	-3
O=C(NCc1ccc2c(c1)OCO2)c1ccc2c(c1)C(=O)N(CC1CCCO1)C2=O (stereo not drawn)	.	-6.4	0.6	-5	-3.1	-6	6%	-3
CCN(CC)c1nc(-c2ccc(Cl)cc2)cc(C(F)(F)F)c1C#N	.	-6.0	0.3	4	5.2	0	-7%	47
CCn1c2ccccc2c2cc(NC(=O)C3CCN(S(=O)(=O)c4cccs4)CC3)ccc21	6.5	-0.2	0.0	7	8.4	-2	.	50
Cc1ccc(S(=O)(=O)NCCC(=O)OCn2nnc3ccccc3c2=O)cc1	.	5.6	-0.7	6	-0.3	7	13%	-1
COc1ccc(C(=O)N2CCN(c3ccccc3)CC2)cc1S(=O)(=O)N1CCCC1	0.4	0.6	-0.5	1	4.9	-6	-5%	2
O=c1cc(CO)oc(CN2CCN(c3ccccc3)CC2)c1O	.	0.7	-0.6	-4	-0.2	-26	10%	-12
C=CCN=C1CC(C)(C)CC(=O)/C1=C(\O)CCCN1C(=O)c2ccccc2C1=O	-1.7	-1.4	0.7	-6	0.5	12	.	15
O=C(Nc1ccc(F)c(Cl)c1)C1CCCC1	-3.5	-4.8	0.7	-13	0.1	-7	.	1
Cc1ccc(Nc2nc(=O)c3cccnc3s2)cc1	.	-2.1	0.2	3	2.8	-24	5%	-5
Cc1ccc(C2C(C#N)=C(N)Oc3n[nH]c(-c4cccs4)c32)s1 (stereo not drawn)	.	2.9	0.3	.	1.0	8	11%	-10
N#Cc1ccccc1Oc1ccccc1C=O	-2.7	3.1	1.1	-5	3.0	-4	4%	-12
COc1ccc(C)cc1NC(=O)C1CCC(CNc2c(N3CCOCC3)c(=O)c2=O)CC1 (stereo not drawn)	-2.0	-0.6	-0.6	4	6.2	2	6%	5
O=C(NC(=S)NC1CCS(=O)(=O)C1)c1ccccc1F (stereo not drawn)	-2.1	1.1	0.1	.	-0.6	5	-5%	-1
COc1ccccc1CNC(=O)OCc1nccnc1C(=O)Nc1ccc(Br)cn1	3.6	-0.7	0.4	-9	6.9	-4	.	2
O=C(Oc1ccc(-c2cnc3ccccc3n2)cc1)c1cccc([N+](=O)[O-])c1	.	0.3	-0.7	-32	1.4	-1	-4%	-11
Nc1nc(N)c2c(n1)CCCC2	-2.2	-2.7	0.8	-3	4.5	-2	.	-1
N/C(=N\OC(=O)Nc1ccccc1)c1cccc(C(F)(F)F)c1	-1.1	-5.2	0.0	-5	-1.7	.	.	-3
Cc1cccc(OCCCSc2nc3ccc(C)cc3[nH]2)c1	.	-0.2	-1.0	-4	-2.3	17	?	3
CCN1CCN(C(=O)CN(CCc2ccccc2)S(C)(=O)=O)CC1	.	-0.4	-0.6	-2	-3.9	-1	-2%	-3
Cc1ccc(-c2[nH][nH]c(=O)c(=O)c2N=Nc2ccccc2)cc1	-5.9	0.4	-1.0	8	-1.9	-3	-3%	-1
COC(=O)c1ccccc1COn1c(=O)c(C)[n+]([O-])c2ccccc21	.	0.6	0.0	-3	-3.0	-11	32%	-5
COc1ccc2[nH]c(C(=O)N3CCc4ccccc4C3)c(C)c2c1	-0.7	-0.9	1.3	-5	-1.4	3	.	-8
CN(CC(=O)Nc1ccc(F)c(F)c1)S(=O)(=O)c1cccc2cccnc12	-8.8	-2.6	0.2	2	2.4	1	.	-10
Cc1ccnc(NC(=O)c2ccc(OCC3CCCO3)cc2)c1 (stereo not drawn)	-0.2	0.0	-8.8	8	5.4	-10	-15%	-16
CC1CCN(CCCN2C(=O)C3C(C(=O)Nc4cccc(Cl)c4)C4C=CC3(O4)C2C(=O)NC2CCCCC2)CC1 (stereo not drawn)	6.9	-5.0	-0.7	-1	2.8	-9	.	11
C=CCSc1ncnc2sc(C)c(C)c12	-9.2	1.1	0.1	4	0.4	9	.	-10
O=C(CSc1nc2ccsc2c(=O)n1NC(=O)c1ccccc1)NCc1ccco1	.	-2.2	-0.2	-7	-2.8	-5	26%	-13
COc1cccc(NC(=O)c2nc(SC)ncc2Cl)c1	12	-0.2	0.0	-13	-1.6	11	.	0
CC(C)(C)N(NC(=O)c1ccccc1)C(=O)c1cccc(C(=O)N(NC(=O)c2ccccc2)C(C)(C)C)c1	.	0.6	1.1	1	1.8	0	-6%	-1
COc1ccc(CCNC(=O)c2cccc(S(=O)(=O)N3CCOCC3)c2)cc1OC	-6.9	-3.7	0.5	-8	.	.	-15%	.
CCc1nc(SCC(N)=O)c2c(=O)n(C)c(=O)n(C)c2n1	2.4	12	0.2	-5	-1.1	1	6%	-3
COc1ccccc1CC(=O)OCC(=O)N1CCN(c2ccc(F)cc2)CC1	1.4	-3.3	-0.7	0	.	.	.	.
COc1cc(OC)nc(NC(=O)C(C)C)n1	-0.4	-3.0	0.4	-2	?	-3	3%	1
Cc1ccc(OCC(O)Cn2c(=N)n(Cc3ccccc3)c3ccccc32)cc1 (stereo not drawn)	.	1.4	-0.3	49	0.6	-32	5%	?
CC(C)(O)[C@@H]1CC[C@@](C)(C2CC[C@]3(C)C2[C@H](O)CC2[C@@]4(C)CC[C@H](O)C(C)(C)C4[C@@H](O[C@H]4O[C@@H](CO)[C@H](O)[C@@H](O)[C@@H]4O[C@@H]4O[C@H](CO)[C@@H](O)[C@H](O)[C@H]4O)C[C@]23C)O1 (stereo in doubt)	-0.3	-5.9	-0.7	-8	.	.	.	.
CCN(CC)CCN1C(=O)C(O)=C(C(=O)c2cccs2)C1c1ccccn1 (stereo not drawn)	.	0.1	-0.3	-8	68*	-9	27%	10
O=c1[nH]cnc(O)c1C(c1ccc2c(c1)OCO2)c1c(O)nc[nH]c1=O	-3.3	2.9	0.2	-3	-2.4	-13	25%	-13
Cc1cc(NC(=O)C(C)C)n(-c2nc3ccccc3s2)n1	-2.2	-3.5	-6.3	-4	2.8	1	.	2
O=C(NCCc1ccccc1)c1ccc2c(c1)S(=O)(=O)N=C1CCCCCN12	1.1	-1.7	-0.9	2	.	.	.	.
CC(=O)c1cccc(NC(=O)NNC(=O)c2ccc3ccccc3c2)c1	-5.1	0.4	-0.3	-11	-2.5	3	0%	0
Cn1nc(C(=O)N2CCN(c3ccccc3)CC2)c2c1-c1ccccc1S(=O)(=O)C2	1.0	1.5	1.4	2	-5.3	27	0%	16
COc1ccc(CCNc2nc(Cl)nc(NC(C)(C)CO)n2)cc1OC	-0.8	2.8	-0.9	2	-2.7	1	.	5
CN1CCN(CC#CCC(O)(c2ccccc2)C2CCCC2)CC1 (stereo not drawn)	.	3.0	0.8	3	-1.0	0	3%	10
CC(=O)c1c(N2CCN(C)CC2)[nH]c(-c2ccccc2)nc1=S	.	-1.2	1.0	1	3.3	4	8%	44
COc1ccc(Cc2nnc(SC(C)C(=O)Nc3ccc(F)cc3Cl)o2)cc1 (stereo not drawn)	8.6	-2.9	0.7	4	1.2	5	1%	13
O=C(c1cccc(C(F)(F)F)c1)C1CCCN(Cc2ccc(OCCO)cc2)C1 (stereo not drawn)	1.1	-3.3	0.2	1	-5.2	-20	9%	63*
Cc1ccccc1CN1CCNC(=O)C1CC(=O)NCCN1CCCCC1=O (stereo not drawn)	1.0	0.8	1.0	-7	0.5	-1	.	-5

Next part
Molecule	MLL AF4-AF9 inh	LANA-H2A inh	Bfl-1 A1 inh	Beta cell apopt	RanGTP-Imp inh	Calb FLC	Vif A3G	T cruzi repl
Cc1ccc(Sc2ccc([N+](=O)[O-])cc2[N+](=O)[O-])nc1	.	1.5	0.1	-7	-2.9	33	13%	25
CCOc1ccc(C(=O)N2CCC(C(=O)c3ccc4c(c3)OCCO4)CC2)cc1	.	-8.6	-0.7	-1	-0.6	1	17%	-3
CCCCCCNS(=O)(=O)c1ccc(OC)c(OC)c1	.	1.5	-0.2	-3	4.9	-14	?	-15
O=C(N/N=C(\Cc1ncc[nH]1)c1ccccc1)c1cccnc1	1.1	-2.7	0.6	7	.	3	19%	.
O=S(=O)(c1ccc(Br)cc1Cl)N1CCCN(c2ccc(C(F)(F)F)cn2)CC1	-3.2	-6.4	-0.4	-15	.	.	-8%	.
COc1ccc(CNC(=O)CC2C[C@H](C(=O)N3CCOCC3)[C@@]3(CCC4CCCC4)c4[nH]c5ccccc5c4CCN3C2=O)cc1OC (stereo partly drawn)	10	0.3	-0.6	6	.	.	-3%	.
Cn1c(=O)c2sccc2n2c(CCCC(=O)NCc3ccco3)nnc12	-4.2	-2.8	0.1	3	-1.6	-10	.	-19
CC1C(=O)N2CCCc3cc(S(=O)(=O)N(C)c4ccccc4)cc1c32 (stereo not drawn)	1.5	0.0	0.4	-2	?	-1	2%	6
O=C(Nc1nnc(-c2ccccn2)o1)c1ccc(Br)cc1	0.9	-1.2	-6.5	6	-0.9	98*	.	-53
O=C(NCC1CCCO1)c1ccc(CS(=O)(=O)c2c(Cl)cccc2Cl)o1 (stereo not drawn)	0.5	-2.9	0.5	-3	-2.1	-3	3%	-7
COc1cccc(OCC(O)CN2C(C)CCCC2C)c1 (stereo not drawn)	.	3.5	1.1	-5	-1.2	11	0%	-12
COc1ccc(CCNC(=O)C/C(C)=N/NC(=O)C(c2ccccc2)c2ccccc2)cc1OC	2.5	-2.7	0.4	.	1.8	1	-4%	-2
Cc1cc(=O)[nH]c(N2CCN(C(=O)c3ccco3)CC2)n1	0.9	1.6	0.2	1	1.1	-13	2%	-4
COc1cc(/C=N/NC(=O)C(C)Nc2n[nH]c(=O)[nH]c2=O)ccc1O (stereo not drawn)	.	0.1	0.0	-1	5.1	5	?	-12
